# Lassa entry inh: inhibitors of Lassa virus binding or cell entry | Lassa virus pseudotype entry inhibition, cell reporter; control for the full effect not named in the record | Potency, µM (series often up to 37.9 µM), for the others: at the highest dose activity change, negative = inhibition, hits mostly inhibitors | 300,000 compounds, 1.2% hits | AID 540256; active means well fitted inhibition curve with a large enough effect; inconclusive means small, poorly fitted or top-dose-only effect, or effect the other way; inactive means flat fitted curve, though single readings scatter; tested in HEK293 cells; further: on the % scale 0 is the no-effect control and ±100 the full control effect; nearly all actives have a fitted effect of over 50% in size; luciferase read-out
# RE007 growth inh: less growth of the S. pombe RE007 Vpr strain; Potency, µM (doses to about 92.2 µM), for the others: top-dose activity change, negative = less growth; AID 651644; 360,000 compounds, 0.21% hits; S. pombe RE007 Vpr strain, BacTiter-Glo ATP luminescence, 24 h; control for the full effect not named in the record; active = well fitted falling curve with a large enough effect; inconclusive = small, poorly fitted or top-dose-only effect; inactive = no such curve, though single readings can be large or run the other way;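 further: on the % scale 0 is the no-effect control and ±100 the full control effect; nearly all actives have a fitted effect of over 50% in size; the assay follows cell death caused by Vpr and the record does not say whether a fall means rescue or toxicity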
#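 Fission yeast RE007 carrying one integrated HIV-1 vpr copy, seeded at OD 0.01 in PMG+AL medium with 23 nL pinned compound. Grown 24 h at 30 degrees; viability read by BacTiter-Glo luminescence after 5 min.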
# NS1 inh: influenza NS1 inhibition. 270,000 compounds, 0.4% hits. S. cerevisiae slowed by influenza A NS1, growth recovery by OD600. Potency, µM (top dose mostly 46.1 µM), without a hit: top-dose activity, positive = more growth; further: actives are rising curves; nearly all actives have a fitted effect of over 50% in size
#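 A cell-based growth assay was used: compounds that relieve NS1-induced slow growth of budding yeast raise OD600. Assay medium was yeast nitrogen base with ammonium sulphate and -URA supplement, pH 6.0, with 2% galactose.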
# Cruzain Triton: inhibitors of Trypanosoma cruzi cruzain with detergent. purified cruzain, Z-FR-AMC fluorescence, 0.01% Triton. Potency, µM, inactives show max response, negative = inhibition, actives largely listed as inhibitors. 200,000 compounds, 0.43% hits. AID 1478; active means well fitted curve in the direction sought with a large enough effect; inconclusive means small, poorly fitted or top-dose-only effect, or another doubt; inactive means no such curve, though single readings can be large; an effect the other way counts as inactive or inconclusive;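 further: plate controls were neutral wells for no effect and buffer without enzyme for full effect; nearly all actives have a fitted effect of over 40% in size; top concentration of the series not given in the record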
# Target sequence (P25779 123-467 limits assumed): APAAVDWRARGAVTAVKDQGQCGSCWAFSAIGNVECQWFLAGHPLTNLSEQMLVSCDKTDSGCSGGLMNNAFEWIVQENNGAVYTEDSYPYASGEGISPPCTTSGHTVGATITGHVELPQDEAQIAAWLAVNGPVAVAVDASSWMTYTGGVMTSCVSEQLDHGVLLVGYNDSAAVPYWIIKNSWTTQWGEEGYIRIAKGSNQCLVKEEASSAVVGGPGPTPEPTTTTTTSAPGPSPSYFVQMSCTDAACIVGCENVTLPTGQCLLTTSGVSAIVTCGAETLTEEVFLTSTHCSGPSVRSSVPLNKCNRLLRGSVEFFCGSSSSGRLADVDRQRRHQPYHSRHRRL
#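 Enzyme 1.5 nM, Z-FR-AMC 2 uM, NaOAc 100 mM pH 5.5, DTT 5 mM, Triton X-100 0.01%; 15 min RT compound preincubation; kinetic ex360/em450, 60 s delta.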
# StopGo reporter: lowers the luciferase signal of an FMDV 2A StopGo reporter. human cells with a luciferase reporter of 2A StopGo recoding; control for the full effect not named in the record. Potency, µM (series often up to 57.9 µM), without a hit: at the highest dose signal change, negative = less light. 410,000 compounds, 1.2% hits; active = well fitted falling curve with a large enough effect; inconclusive = small, poorly fitted or top-dose-only effect; inactive = no such curve, though single readings can be large or run the other way; tested in HEK293T cells; further: on the % scale 0 is the no-effect control and ±100 the full control effect; nearly all actives have a fitted effect of over 45% in size; luciferase light after 4 h
# MARV entry inh: blocks Marburg virus binding to or entry into cells. Marburg virus pseudotyped entry inhibition, cell reporter; control for the full effect not named in the record; about a third of the inactives were read at about 46 µM. Potency, µM (highest dose often 37.8 µM), for the others: at the top dose activity change, negative = inhibition, actives largely listed as inhibitors. 300,000 compounds, 1.8% hits; active = well fitted inhibition curve with a large enough effect; inconclusive = small, poorly fitted or top-dose-only effect, or effect the other way; inactive = flat fitted curve, though single readings scatter; tested in HEK293 cells; about a fifth of its hits are not listed in these tables; further: on the % scale 0 is the no-effect control and ±100 the full control effect; luciferase read-out
# SARS PLP yeast: SARS-CoV PLP inhibition in yeast | 330,000 compounds, 0.19% hits | Potency, µM (doses to about 32.9 µM), for the others: top-dose activity, positive = growth rescue | S. cerevisiae expressing SARS-CoV PLpro, growth rescue; control for the full effect not named in the record; further: 0% is about no effect; nearly all actives have a fitted effect of over 55% in size; growth read by luminescence after 48 h
# Cruzain inh noDet: cruzain (T. cruzi) inhibition without detergent; P25779; purified cruzain, Z-FR-AMC fluorescence, no detergent; Potency, µM, for inactives: max response, negative = inhibition, most hits filed as inhibitors; 200,000 compounds, 2.3% hits; AID 1476; active means well fitted curve in the direction sought with a large enough effect; inconclusive means small, poorly fitted or top-dose-only effect, or another doubt; inactive means no such curve, though single readings can be large; an effect the other way counts as inactive or inconclusive;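 further: plate controls were enzyme without inhibitor for no effect and buffer without enzyme for full effect; nearly all actives have a fitted effect of over 40% in size; top concentration of the series not given in the record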
#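 Detergent-free condition (0.00005% Triton X-100) in acetate buffer pH 5.5 with DTT. 1.5 nM enzyme and compound were pre-mixed 15 min, then 2 uM Z-FR-AMC substrate added; reaction progress from fluorescence change between first and third reads (60 s).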
# An asterisk follows results filed as active; ? = inconclusive; · = not tested or not shown; & = joins results of further samples; [ ] = another dose, or the depositor's remark. Unless noted, the call rests on the fitted dose curve; in most records, active means well fitted rising curve with a large enough effect; inconclusive means small, poorly fitted or top-dose-only effect; inactive means no such curve, though single readings can be large or run the other way. Potency means the concentration at half of the fitted maximal effect.
SMILES,Lassa entry inh,RE007 growth inh,NS1 inh,Cruzain Triton,StopGo reporter,MARV entry inh,SARS PLP yeast,Cruzain inh noDet
Cc1ccc(SCC(=O)NCCc2ccc(F)cc2)cc1,·,-7%,-7%,·,27%,·,-4%,·
O=CN1CCN(C2CC(=O)N(c3ccc(Br)cc3)C2=O)CC1 (stereo not given),-9%,?,-11%,-0.3%,8%,2%[46.1 µM],-11%,3%
COc1ccccc1OCC(=O)N/N=C1/SCC(=O)N1Cc1ccccc1,22%,3%,0%,0.3%,8%,2%,-3%,-3%
CC(Oc1cccc(Cl)c1)C(=O)Nc1ccncc1 (stereo not given),·,1%,-2%,·,-23%,·,-3%,·
COc1cccc(C(=O)CSc2nnc(CNS(=O)(=O)c3ccc(C)cc3)n2C)c1,25%,-20%,6%,-1.3%,-6%,7%,11%,-2%
COc1ccccc1OCc1ccc(C(=O)N2CCCCC2)o1,10%,-2%,0%,·,-6%,-16%[46.1 µM],1%,·
CC(=O)C1=C(c2ccc(Br)cc2)N(C(C)=O)n2c(nnc2C2CCCCC2)S1,-1%[46.1 µM],·,·,0.8%,-16%,·,·,-5%
O=C(CSc1nnnn1-c1ccccc1)N1CCNC1=O,·,11%,14%,·,2%,·,5%,·
CCOc1cc(CN2CCN(C(=O)CC(C)C)CC2)ccc1OC,7%,0%,-1%,4.5%,?,24%,-2%,-8%
O=c1c2sccc2nc(SCc2cc(=O)n3ccccc3n2)n1-c1ccc(Br)cc1,?,-8%,12%,-8.1%,0%,?,-5%,9%
CN(C)c1ccc(C(=O)N2CCN(c3cc(C(F)(F)F)nc4ccccc34)CC2)cc1,?,-5%,3%,·,?,?,-5%,·
CCOc1ccc(NC(=O)C2CC(=O)NC(N3CCc4ccccc43)=N2)cc1 (stereo not given),-1%,-1%,1%,0.9%,6%,-19%,-7%,-8%
c1ccc(CCNc2c3c(nc4ncnn24)CCC3)cc1,-46%[14.3 µM],-5%,1%,6.8%,?,-14%,5%,-4%
Cc1ccc(CN(CC(=O)NC2CCCC2)C(=O)CSc2nnc(COc3ccccc3)o2)cc1,16%,-15%,12%,3.7%,23%,-17%,-1%,?
O=C(Nc1ccccc1C(=O)Nc1nncs1)c1ccccc1,?,1%,3%,·,-29%,?,1%,·
Cc1nc(NC(=O)c2ccccc2)sc1-c1csc(NCCc2ccccc2)n1,-4%,-8%,27%,-8.7%,59%[activator],?,-5%,?
CC(C)CC(=O)Nc1ccc(C(=O)COc2ccc(-c3nnco3)cc2)cc1,-28%,3%,-6%,-9.0%,-17%,10%[46.1 µM],0%,-10%
CCCCn1nc(C(=O)N(C)CC(=O)Nc2cccc(F)c2)c2ccccc2c1=O,-3%,-10%,·,·,-17%,-9%,-2%,·
CCOC(=O)CSC1=N/C(=C/c2ccc(-n3cncn3)cc2)C(=O)N1C(C)=O,?,10%,4%,·,?,-19%[46.1 µM],2%,·
CN(C(=O)c1ccncc1)C1CCCN(Cc2ccccc2F)C1 (stereo not given),4%[46.1 µM],-3%,6%,·,-6%,18%[46.1 µM],-7%,·
COc1cc(NC(=O)CSc2nnc(C)s2)cc(OC)c1OC,6%,10%,-5%[9.22 µM],6.2%,-9%,28%,2%,-7%
CCC(C)NC(=O)CCC(=O)OC1O[C@H]2OC3(C)CC[C@H]4[C@H](C)CCC(C1C)C24OO3 (stereo not given in full),·,-15%,-67%,·,-17%,·,-8%,·
O=C(NCc1cccnc1)C1CC(c2ccc(Cl)c(Cl)c2)=NO1 (stereo not given),·,-16%,-9%,·,0%,·,1%,·
CCN1C(=O)CC(N2CCN(CC(=O)NC(C)C)CC2)C1=O (stereo not given),-7%,-5%,-2%,5.3%,-12%,13%,0%,-4%
CCOc1ccc(C(O)(c2ccccc2OC)C(CN2CCCC2)c2ccccc2)cc1 (stereo not given),·,4%,23%,·,?,·,6%,·
O=S(=O)(Nc1ccc2c(c1)OCO2)c1ccc(Br)s1,2%,-1%,-1%,-4.2%,·,17%,-4%,?
COc1cc(Nc2ncnc(N)n2)cc(OC)c1,?,0%,7%,·,22%,10%[46.1 µM],0%,·
CC1CC(C)(C)NC(=S)N1CCC(=O)NCc1ccc(Cl)cc1 (stereo not given),-20%,5%,·,·,-2%,15%[46.1 µM],1%,·
Cc1cccn2c(=O)c3cc(C(=O)NCC4CCCO4)c(=N)n(Cc4cccnc4)c3nc12 (stereo not given),2%,-11%,-1%,22µM*,-12%,?,-3%,?
Cc1cc(C)n(C(=O)c2ccc(NC(=O)CC(C)C)cc2)n1,-6%,0%,-6%,-5.1%,·,3%,22%,5%
CSc1sc(C#N)c2c1/C(=N\O)CCC2,-3%[46.1 µM],-8%,-5%,·,-6%,-8%[46.1 µM],1%,·
COc1ccccc1CCNC(=O)/C(=C/c1cccnc1)NC(=O)c1ccccc1,-21%,18%,6%,-2.3%,9%,-27%,-25%,-8%
COc1ccc(/C=C2\C(=O)NC(=O)N(Cc3ccccc3)C2=O)c(OC)c1OC,·,11%,11%,·,-19%,·,0%,·
CCOc1ccccc1NC(=O)C(CC(C)C)NS(=O)(=O)c1ccc2c(c1)CCN2C(C)=O (stereo not given),-23%[46.1 µM],·,·,-2.9%,16%,?,·,-4%
COc1ccc(CC(=O)Nc2cc(-c3cn4cccnc4n3)ccc2C)cc1OC,-27%[46.1 µM],·,·,-13%,?,·,·,7%
Cc1nnc(SCC2=C(C(=O)O)N3C(=O)C(NC(=O)COc4ccccc4)C3SC2)s1 (stereo not given),14%,-7%,·,·,-15%,10%[46.1 µM],-5%,·
CN(CCCC1CCCC1)C(=O)CC1C(=O)NCCN1Cc1ccc(F)cc1 (stereo not given),-10%,8%,14%,·,0%,-1%,13%,·
CC1(C)C(C=C(Cl)Cl)C1C(=O)Nc1ccc(S(=O)(=O)Nc2ncccn2)cc1 (stereo not given),7%,-19%,14%,·,-21%,-21%[46.1 µM],-1%,·
CC1CN(C(=O)Nc2ccc3c(c2)OCCO3)CC(C)O1 (stereo not given),?,17%,·,·,22%,-2%[46.1 µM],1%,·
O=[N+]([O-])C(=C1SCCS1)C(=C(Cl)Cl)N1CCCCC1,1%[46.1 µM],29%,·,·,-4%,?,-7%,·
CCOCCc1c(O)[nH]c(=S)[nH]c1=O,-4%,-11%,-3%,·,-11%,11%[46.1 µM],1%,·
CCN1CCCC1CNC(=O)c1cc2c(OC)c(OC)c(OC)cc2[nH]1 (stereo not given),24%,6%,4%,·,11%,-9%,-1%,·
COc1cccc(/C=N/N(C)C2=NS(=O)(=O)c3ccccc32)c1O,·,-8%,2%,·,-29%,·,2%,·
Cc1ccc(C#N)c(SCc2ccccc2[N+](=O)[O-])n1,-3%,-6%,-3%,-4.5%,0%,1%,0%,-11%
COc1ccc(C(=O)/C(=C/O)N=Nc2ccc(F)cc2)cc1,?,-48%,·,·,-16%,?,-19%,·
Cc1cccc(C(=O)N2CCCC(N3CCN(c4ccccc4)CC3)C2)n1 (stereo not given),·,-8%,-1%,·,-12%,·,9%,·
COc1cc(-c2nc(S(=O)(=O)c3ccc(Cl)cc3)c(N(C)C)o2)cc(OC)c1OC,-3%,26%,13%,-10%,-12%,3%,-6%,?
Cc1ccc(S(=O)(=O)NC(=O)c2cc(C)n(CCCN3CCOCC3)c2C)cc1,-2%,6%,3%,6.2%,4%,?,-6%,1%
COc1cccc(NC(=O)C2C3C=CC4(O3)C2C(=O)N(CCCN2CCCCC2)C4C(=O)NC2CCCCC2)c1 (stereo not given),1%,8%,-2%,·,15%,1%[46.1 µM],-2%,·
Cc1nn(-c2cccc(Cl)c2)c2nc(-c3ccco3)cc(C(=O)O)c12,-10%,12%,1%,-19%,-13%,2%,15%,?
# (more compounds)
SMILES,Lassa entry inh,RE007 growth inh,NS1 inh,Cruzain Triton,StopGo reporter,MARV entry inh,SARS PLP yeast,Cruzain inh noDet
COc1ccc(NS(=O)(=O)c2cc(Br)cc3c2N(C(=O)C2CC2)CC3)cc1OC,?,·,·,-3.0%,8%,·,·,-5%
COC(=O)c1ccccc1NC(=O)CN1CCc2ccccc2C1,-21%,4%,-25%,·,-24%,-14%,-7%,·
Cc1cc(NC(=O)CSc2ccc3nnc(-c4ccc(Cl)cc4)n3n2)no1,-4%,5%,-8%,-2.5%,1%,-19%,6%,?
CS(=O)(=O)N(CC(=O)N1CCN(Cc2ccc3c(c2)OCO3)CC1)C1CCCCC1,-2%,12%,1%,·,-25%,-30%[46.1 µM],-1%,·
CC(C)(C)c1ccc(C(=O)NC(=S)N2CCOCC2)cc1,·,12%,1%,·,73%[activator],·,4%,·
CC(C)[C@H](NC(=O)Nc1cccc(Br)c1)C(=O)O,5%,5%,2%,-0.9%,-2%,-12%,9%,-3%
COc1ccc(C(=O)NN2CCCCC2)cc1OC,2%,6%,1%,-1.9%,12%,15%,4%,2%
COc1ccc(N2CCN(C(=O)CCCn3c(=S)[nH]c4cc5c(cc4c3=O)OCO5)CC2)cc1,?,0%[3.69 µM],-43%,2.2%,-28%,-5%&3%,-6%,11%
COc1ccc([N+](=O)[O-])cc1/C=N/NC(=O)c1nonc1N,-27%,6%,6%,·,-13%,-19%[46.1 µM],-9%,·
Cc1cccc(NC(=O)N[C@@H](C)C(=O)O)c1,1%,-3%,1%,2.1%,-17%,25%,12%,-8%
O=C(CSc1nc2ccc(Cl)cc2[nH]1)Nc1ccc2[nH]c(=O)[nH]c2c1,12%,5%,·,·,3%,?,-1%,·
CC(C)C[C@H](NC(=O)c1nc[nH]c1C(=O)NC(c1ccccc1)c1ccccc1)C(=O)OC(C)(C)C,·,10%,10µM*,·,-19%,·,0%,·
O=C(NCCCC(NC(=O)OCc1ccccc1)C(=O)O)OCc1ccccc1 (stereo not given),·,11%,?,·,-9%,·,15%,·
Cc1ccc(OC(=O)CCC(=O)NC(C)c2ccccc2)cc1 (stereo not given),11%,·,12%,-3.9%,-14%,-3%,13%,12%
